# Assay outcomes as filed in PubChem BioAssay.
# GLA inh pH 4.5: alpha-galactosidase A (human) inhibition, pH 4.5. purified enzyme, 4-MU-alpha-Gal fluorescence, pH 4.5. activity change, negative = inhibition, % at 105 µM. 230,000 tested, under 10 active. AID 1467; inconclusive = small, poorly fitted or top-dose-only inhibition, or a rising curve; inactive = flat fitted curve, though single readings scatter; no compound was filed as active;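 further: 0% = full activity with enzyme and -100% = basal without enzyme; dose as in the result columns while the protocol names 77 µM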
# miR-21 FLuc: miR-21 reporter, rising signal. Potency, µM (top dose mostly 38.3 µM), without a hit: at the top dose reporter change, positive = more light. HeLa miR-21 FLuc reporter, luciferase, 48 h. 340,000 tested, under 10 active; active = well fitted rising curve with a large enough effect; inconclusive = small, poorly fitted or top-dose-only effect; inactive = no such curve, though single readings can be large or run the other way;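 further: % of control where 0% means no effect; miR-21 action dims this reporter so a rising signal means less miR-21 action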
#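 HeLa miR-21-FLuc reporter line, endogenous miR-21; 2000 cells/well in DMEM/10% FBS; compound titration up to ~40uM final, 48 h, 37 degree Celsius; luciferase detection reagent, 15 min lysis, CCD luminescence.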
# Rango-impB inh: inhibitors of Rango-importin beta complex formation; Q14974; Rango CFP/YFP FRET sensor + importin beta, 45 min; Potency, µM (series often up to 92.2 µM), inactives show at the highest dose inhibition of complex formation; hit rate 0.031% among 340,000; active = rising FRET ratio curve, often small or poorly fitted; inconclusive = mostly compound fluorescence or quenching in the first reads; inactive = flat curves in all reads;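 further: potency means the concentration at half of the fitted maximal effect; 0% = DMSO wells and 100% = buffer wells lacking importin beta; nearly all actives have a fitted effect of over 15% in size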
# Target sequence (Q14974 whole entry, looked up): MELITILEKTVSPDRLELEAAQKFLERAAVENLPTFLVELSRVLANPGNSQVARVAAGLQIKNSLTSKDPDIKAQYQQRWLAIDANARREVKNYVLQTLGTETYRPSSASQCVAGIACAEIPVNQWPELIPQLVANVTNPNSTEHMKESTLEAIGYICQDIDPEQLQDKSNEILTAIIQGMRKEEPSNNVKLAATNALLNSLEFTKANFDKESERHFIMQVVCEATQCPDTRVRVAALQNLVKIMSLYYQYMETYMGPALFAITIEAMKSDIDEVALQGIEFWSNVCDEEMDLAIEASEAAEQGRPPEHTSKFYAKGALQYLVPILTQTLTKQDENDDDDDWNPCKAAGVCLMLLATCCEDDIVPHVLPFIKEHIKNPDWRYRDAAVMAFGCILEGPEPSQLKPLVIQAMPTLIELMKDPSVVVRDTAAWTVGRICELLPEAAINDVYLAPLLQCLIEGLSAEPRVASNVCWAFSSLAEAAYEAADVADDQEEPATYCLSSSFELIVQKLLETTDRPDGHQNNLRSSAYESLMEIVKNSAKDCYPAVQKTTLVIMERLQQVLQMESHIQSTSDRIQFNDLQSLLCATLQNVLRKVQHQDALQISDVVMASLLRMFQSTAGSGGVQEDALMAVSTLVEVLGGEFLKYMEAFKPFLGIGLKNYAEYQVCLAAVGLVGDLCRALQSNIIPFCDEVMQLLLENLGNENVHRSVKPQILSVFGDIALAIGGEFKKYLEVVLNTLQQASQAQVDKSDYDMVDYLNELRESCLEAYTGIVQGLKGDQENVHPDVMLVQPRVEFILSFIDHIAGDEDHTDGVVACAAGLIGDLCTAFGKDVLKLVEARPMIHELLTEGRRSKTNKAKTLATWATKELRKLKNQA
#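 FRET biosensor Rango (snurportin 1 IBB between N-terminal EYFP and C-terminal Cerulean), 50 nM in PBS/1 mM DTT/0.02% Tween-20/0.1% BSA, preincubated 5 min RT with compound; 0.125 microM importin beta added, 45 min RT, CFP/YFP FRET ratio read.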
# Rango dissoc inh: inhibitors of RanGTP-induced Rango-importin beta complex dissociation; AID 540253; Potency, µM (highest dose often 46.1 µM), for inactives: at the highest dose activity change, negative = inhibition; Biochemical FRET Rango-importin beta, RanGTP-induced dissociation; O95149+P62826; hit rate 0.071% among 340,000; active means falling FRET ratio curve, often poorly fitted, with flat reads before Ran was added; inconclusive means other falling curves, or compound fluorescence or quenching; inactive means flat or rising ratio curve;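 further: potency means the concentration at half of the fitted maximal effect; % of control where 0% means no effect; nearly all actives have a fitted effect of over 45% in size; -100% = wells without RanGTP and RCC1; the record marks most hits as doubtful in a second field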
#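 Compounds preincubate 5 min with complex of recombinant Rango and importin beta in PBS with 1 mM DTT. Ran (0.6 uM) loaded with 2 mM GTP plus 0.2 uM RCC1 starts dissociation; FRET is recorded 45 min later.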
# Starred values were filed as active, the others as inactive; u = inconclusive; x = not tested or not shown.
Rango dissoc inh	Rango-impB inh	miR-21 FLuc	GLA inh pH 4.5	Molecule
3%	u	13%	-5	O=C(NCc1ccc(C(F)(F)F)cc1)C1CC(c2cccc(F)c2)=NO1 (stereo unspecified)
14%	-1.4%	x	x	COc1ccc(NC(=O)COc2coc(CN3CCc4ccccc43)cc2=O)cc1
16%	-2.4%	-9%	2	COc1ccc(CNC(=O)CCS(=O)(=O)Cc2cccc(Cl)c2)c(OC)c1
19%	-2.6%	1%	-2	N#Cc1c(SCc2ccccc2)sc(C(=O)c2ccccc2)c1N
8%	-1.0%	-1%	-5	Cc1ccc(C)c(SCc2noc(C(=O)NCC3CCCO3)c2C(=O)O)c1 (stereo unspecified)
12%	-1.1%	12%	-11	COc1ccc(CNC(=O)C(c2ccco2)N(Cc2ccccc2)C(=O)Cc2cccs2)cc1 (stereo unspecified)
9%	1.6%	5%	-2	Cc1ccc(NC(=O)COC(=O)[C@H](C)NC(=O)c2ccccc2)cc1S(=O)(=O)N1CCOCC1
u	u	0%	x	Cc1ccc2c(cnn2C(=O)CCC(=O)NCc2ccccc2Cl)c1
u	u	3%	-3	O=C1CC(c2ccco2)CC(O)=C1C=Nc1cc(Cl)ccc1O (stereo unspecified)
-2%	-0.2%	6%	-1	COC(=O)C1=C(C)N(C(C)c2ccccc2)C(=O)/C1=C\c1ccco1 (stereo unspecified)
1%	-2.9%	-3%	3	O=C(NC1CC1)c1ccc(CS(=O)(=O)c2c(Cl)cccc2Cl)o1
-6%	-2.0%	-22%	4	CCCCOc1ccc(CC2CCC(=O)NC2=O)cc1 (stereo unspecified)
8%	1.1%	-2%	5	CCCN=Cc1ccc(O)cc1
8%	4.9%	-4%	x	Cc1ccc(C(=O)N2CCN(CCNC(=O)C(=O)Nc3ccc(Cl)cc3)CC2)cc1
1%	0.1%	-4%	x	O=C(O)c1ccc2c(=O)n3c(nc2c1)/C(=C/c1ccccc1OC(F)F)CC3
8%	1.2%	-1%	2	CC(=O)c1c(C)[nH]c(C(=O)NCc2ccc(F)cc2)c1C
-15%	1.8%	x	x	Cc1ccc(S(=O)(=O)N2CCN(C(=O)COC(=O)CSc3cc(C)ccc3C)CC2)c(C)c1
-11%	-4.0%	-5%	2	O=C1NC(NS(=O)(=O)c2ccccc2)(C(F)(F)F)C(=O)N1Cc1cccnc1 (stereo unspecified)
23%	-1.2%	-3%	1	NC(=O)[C@H](Cc1cc2ccccc2s1)NC(=O)[C@@H]1CC2(CC(c3cccc(NC(=O)[C@@H]4CCC(=O)N4)c3)=NO2)CN1C(=O)/C=C/c1c(F)cccc1Cl (stereo partly specified)
1%	0.1%	-1%	x	Cc1ccc(CCN2CC(C(=O)NC(C)C)CC2=O)cc1 (stereo unspecified)

# Reformatted with two lines to a compound: 3 of the compounds above
# Under each structure: Rango dissoc inh | Rango-impB inh | miR-21 FLuc | GLA inh pH 4.5
Cc1ccc2c(cnn2C(=O)CCC(=O)NCc2ccccc2Cl)c1
→ u | u | 0% | x
O=C1CC(c2ccco2)CC(O)=C1C=Nc1cc(Cl)ccc1O (stereo unspecified)
→ u | u | 3% | -3
COC(=O)C1=C(C)N(C(C)c2ccccc2)C(=O)/C1=C\c1ccco1 (stereo unspecified)
→ -2% | -0.2% | 6% | -1

# (continued)
Rango dissoc inh	Rango-impB inh	miR-21 FLuc	GLA inh pH 4.5	Molecule
-5%	-1.5%	-1%	-2	Cc1cccc(C)c1NC(=S)N1CC(C)OC(C)C1 (stereo unspecified)
1%	-7.0%	13%	x	N#Cc1ccc(CN(c2ccncc2)S(=O)(=O)c2ccccc2)cc1
0%	0.0%	x	x	COc1ccccc1CCNC(=O)c1cc(-c2ccccn2)nc2ccccc12
0%	1.7%	4%	1	CCOc1ccc(NC(=O)Nc2cc(C(C)C)c(O)cc2C)cc1
2%	-1.7%	-1%	-12	CCOCCCNS(=O)(=O)c1ccc(NC(=O)N2c3ccccc3Sc3ccccc32)cc1
-7%	-0.3%	-4%	-3	c1csc(C(c2nnnn2C2CCCCC2)N2CCN(c3nc4ccccc4s3)CC2)c1 (stereo unspecified)
-18%	-1.5%	x	x	COc1ccc(NC(=O)COc2ccc(-n3cnnn3)cc2)cc1OC
7%	-2.2%	-1%	x	O=C(NCCc1ccccc1)C(=O)NCC1OCCN1S(=O)(=O)c1ccc(F)cc1 (stereo unspecified)
7%	-0.1%	0%	0	COc1ccc2nc(NC(=O)CN(C)S(=O)(=O)c3cccs3)sc2c1
-15%	1.2%	19%	-16	CCN(CC)S(=O)(=O)c1cccc(NC(=O)C(=O)c2c(-c3ccccc3)cc3ccccn23)c1
-5%	1.4%	-5%	-10	Nc1nc2c(s1)CCCCCCCCCC2
0%	4.6%	0%	1	Cc1cccc(CC(=O)OCn2nnc3ccccc3c2=O)c1
1%	-3.1%	-1%	x	OCCN(CC#CC(O)(c1ccccc1)C1CCCCC1)CCO (stereo unspecified)
6%	-0.8%	0%	-11	CCCCNS(=O)(=O)c1ccc2nc(SCC(=O)c3ccc(C#N)cc3)[nH]c2c1
4%	-3.0%	-35%	x	Cc1cc(C)c(NC(=O)Nc2ccc3c(c2)OCO3)c(C)c1
7%	0.4%	x	x	O=C(CN1CCN(S(=O)(=O)c2ccc(Cl)cc2)CC1)N1CCCC1
-5%	2.2%	-1%	-1	Cc1cc(C(C)(C)C)ccc1OCCN(C)C
9%	2.5%	-10%	-9	CCOC(=O)c1ccc(NC(=O)c2nc[nH]c2C(=O)NC)cc1
-3%	3.8%	25%	-16	O=[N+]([O-])c1ccc(C[n+]2cccc3ccc4cccnc4c32)cc1
-14%	1.5%	4%	1	Cc1cc(-c2cc(C(=O)NCc3ccccc3)on2)nc(NC2CCCC2)n1

# 3 structures from above, sorted by molecular weight, ascending.
Rango dissoc inh	Rango-impB inh	miR-21 FLuc	GLA inh pH 4.5	Molecule
-5%	-1.5%	-1%	-2	Cc1cccc(C)c1NC(=S)N1CC(C)OC(C)C1 (stereo unspecified)
1%	-7.0%	13%	x	N#Cc1ccc(CN(c2ccncc2)S(=O)(=O)c2ccccc2)cc1
7%	0.4%	x	x	O=C(CN1CCN(S(=O)(=O)c2ccc(Cl)cc2)CC1)N1CCCC1

# The list continues:
Rango dissoc inh	Rango-impB inh	miR-21 FLuc	GLA inh pH 4.5	Molecule
-9%	4.0%	-5%	-4	Cn1nc(-c2ccc(C(=O)Nc3cccc(Cl)c3)cc2)c2ccccc2c1=O
2%	0.7%	4%	x	COc1cc(/C=C/C(=O)O)cc(S(=O)(=O)NCCCO)c1OC
17%	0.2%	-4%	-15	CCOC(=O)c1ccc(NC(=O)CS(=O)(=O)c2cn(CC)c3ccccc23)cc1
-8%	-0.7%	2%	-8	COC(=O)c1sc(NC(=O)c2cccc([N+](=O)[O-])c2)c(C(N)=O)c1C
1%	-3.8%	0%	-9	COC(=O)c1cn(C(=O)c2ccc(C)c(C)c2)c2ccccc12
-10%	-4.2%	-1%	x	Cc1cc(F)ccc1N1CCC(N2CCN(C)C(CCO)C2)CC1 (stereo unspecified)
-10%	3.3%	3%	-15	COC(=O)Nc1ccc(S(=O)(=O)N2CCCC(C(=O)N3CCCCC3)C2)cc1 (stereo unspecified)
13%	-1.8%	-43%	-9	Cc1cc(C(=O)NCCC2=CCCCC2)ccc1[N+](=O)[O-]
-4%	-0.6%	0%	9	COC(=O)CNC(=O)c1cc(OC)cc(OC)c1
0%	4.4%	-12%	x	O=[N+]([O-])c1cccc(/C=N/Nc2cc(N3CCOCC3)ncn2)c1
2%	-0.1%	-5%	-1	CCc1cc(C(c2ccncc2)N2CCN(C)CC2)c(NC(=O)c2ccccc2)s1 (stereo unspecified)
-10%	3.9%	-17%	-2	CCN(CC)S(=O)(=O)c1ccc(F)c(C(=O)NCCC(C)C)c1
-20%	-0.6%	10%	x	CC(=O)N1CCc2cc(S(=O)(=O)Nc3ccc(C)cc3C)ccc21
0%	-0.9%	-12%	6	COC(=O)c1ccc(CSc2n[nH]c(-c3ccccc3)n2)o1
-11%	-4.2%	2%	-7	COc1ccccc1CNC(=O)CSc1nc(N)c(C#N)c(-c2cccs2)c1C#N
-10%	-0.2%	-16%	-4	CCOCC(=O)Nc1nc2ccc(S(C)(=O)=O)cc2s1
-5%	2.4%	-4%	-4	CCCc1cc(N2CCCC(C(=O)NCc3ccc4c(c3)OCO4)C2)n2ncnc2n1 (stereo unspecified)
-1%	4.7%	1%	-1	CCCCc1c(C)nc2ccc(Br)cc2c1SC(N)N
1%	3.1%	x	x	O=C1c2ccc(Cl)cc2S(=O)(=O)c2cccc(C(=O)N3CCN(c4ccc(Cl)cn4)CC3)c21
8%	-1.6%	-9%	x	COCCN1CC(CNC(=O)c2cc(COc3ccc(C)c(C)c3)on2)CC1=O (stereo unspecified)
-3%	-2.5%	2%	-1	COc1ccc(NS(=O)(=O)c2cnc[nH]2)cc1
-8%	-2.3%	x	x	Cc1ccc(S(=O)(=O)N2CCN(C(=O)c3cc(-c4cccs4)nn3-c3ccccc3)CC2)cc1
6%	2.5%	-5%	-3	O=C(CCNc1ccc(F)cc1)c1cccc([N+](=O)[O-])c1
2%	0.5%	1%	x	COc1cc(-c2nc3sc(C)c(C)c3c(=O)o2)cc(OC)c1OC
4%	-1.0%	1%	-21	Cc1ccc(S(=O)(=O)Nc2nc(C)c(NC(=O)Nc3ccc(Cl)cc3Cl)s2)cc1
6%	1.3%	0%	x	COc1ccc(NC(=O)c2ccc3c(c2)C(=O)N(CC2CCCO2)C3=O)cc1 (stereo unspecified)
-7%	-0.6%	-6%	0	O=C(COC(=O)c1cccnc1Cl)Nc1ccc2c(c1)OCCO2
u	u	-6%	x	COc1ccc(-c2c(C#Cc3ccsc3)c3ccccc3n2C)cc1
0%	-0.6%	-1%	-1	CN(C)C(=O)CCN1CCOCC1
13%	8.7%	x	x	Cc1ccc(Cl)c(OCC(=O)OCC(=O)c2ccc[nH]2)c1
3%	3.9%	x	x	CCOC(=O)C1=C(C)N(C[C@@H]2CC[C@@H](Cc3ccc(-c4ccccc4)cc3)O2)C(=O)NC1c1ccc(SCc2ccco2)c([N+](=O)[O-])c1 (stereo partly specified)
19%	-2.7%	-3%	3	COc1ccccc1NC(=O)CSc1ccc2nnc(-c3ccccn3)n2n1
-1%	-1.6%	-3%	1	O=C(CSc1ncnc2c1nnn2-c1ccc(F)cc1)NCC1CCCO1 (stereo unspecified)
1%	5.8%	-1%	x	Cc1cc(OCC(=O)NC(Cc2ccc(Cl)cc2)C(=O)O)c2c(C)c(C)c(=O)oc2c1 (stereo unspecified)
u	-3.6%	-4%	0	CCCCCc1c(C)nc(NCc2ccccc2)[nH]c1=O
-14%	-4.8%	-4%	1	Cc1ccc(NC(=O)CSc2nnc(-c3cnccn3)n2Cc2ccco2)cc1C
3%	u	x	x	CN(C)c1ncnc2c1C(c1ccccc1)C(C)(C)O2 (stereo unspecified)
-7%	4.4%	21%	-1	O=C(Nc1ccc(F)cc1)C(Sc1nc2ccccc2[nH]1)c1ccccc1 (stereo unspecified)
22%	4.1%	x	x	CCCCc1ccc(NS(=O)(=O)c2cccc(C(=O)N3CCNC(=O)C3)c2)cc1
0%	-1.5%	1%	x	O=C(NCc1ccco1)C(c1ccncc1)N(C(=O)Cn1nnc2ccccc21)c1ccccc1 (stereo unspecified)
x	x	7%	-1	CCCc1nnc(NC(=O)c2c(O)c3cccc4c3n(c2=O)CCC4)s1
1%	-0.7%	-45%	2	O=C(CSc1ncnc2ccccc12)N1CCCC1
9%	-2.1%	24%	1	Cc1oc(=O)c(NC(=O)c2cccc(Cl)c2)cc1C(=O)c1ccccc1
-3%	-4.6%	-45%	8	CCOC(=O)C1CCCN(C(=O)CSc2ccccc2)C1 (stereo unspecified)
1%	2.2%	x	x	COc1ccc([C@@H]2CC=C(C(=O)O)[C@H](c3ccccc3)N2S(=O)(=O)c2ccc(C)cc2)cc1OC
-17%	0.1%	x	x	Cc1ccccc1C(=O)N1CCC2CC1c1cc(-c3ccc(F)cc3)ccc12 (stereo unspecified)
-4%	-1.0%	-32%	x	O=C(N/N=C/c1cc2c(cc1Br)OCO2)c1cc2ccccc2o1

# The list is partial; the hit share may differ from the screen's.
